PrP UTR inh = inhibition of PrP 5' UTR reporter expression | cell-based PrP 5' UTR mRNA reporter, plate reader | inhibition, % (no concentration beside the values) | 340,000 compounds, 0.35% hits;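 active = every replicate at 50% or more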;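 also: 0 = median of the neutral control wells; tested in H4 reporter cells; numbers are from one replicate; inactives centre near -14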
BJeLR lethal = kills HRASV12-expressing BJeLR cells | inhibition, % (concentration not given with the values) | 300,000 compounds, 0.17% hits | BJeLR (HRASV12) viability, CellTiter-Glo ATP luminescence, 48 h; reference of the scale not given here;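 active = replicate mean above 50%; inconclusive = above 50% but judged a plate artefact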;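 also: 50 nL library stock added to about 25 µL; numbers are from one replicate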
Autofluor counter = compound fluorescence in toxin protease inhibitor counterscreen; compound autofluorescence counterscreen, microsphere flow cytometry; active compounds read high; fluorescence intensity (test concentration not listed); 360,000 compounds, 3.1% hits; AID 624483;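 active = at least 3 SD above the mean of all compounds, about 16000 in these data; inconclusive = too few beads counted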;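 also: 100 nL of 1 mM stock went into each well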
ugtP null kill = growth inhibition of S. aureus ugtP deletion strain; growth inhibition, % (concentration not given with the values); 330,000 compounds, 0.54% hits; S. aureus RN4220 ugtP deletion, OD600 growth, 16 h; some inactives read as strong as hits;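 active = z-score under -3 and OD600 up to 0.15 on both plates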;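 also: plate controls were untreated wells for no effect and antibiotic for full effect; wells of about 80 µL received 100 nL stock; the first replicate is given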
Mtb hypoxia inh = inhibitors of hypoxia-regulated fluorescent reporter in Mycobacterium tuberculosis. fluorescence inhibition, % (no concentration beside the values). AID 1159583. 300,000 compounds, 0.1% hits. M. tuberculosis hypoxia-regulated fluorescent reporter, fluorescence;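 active = 35 to 45% if threefold the growth effect, above 45% if 1.5-fold the growth effect; inactive = the rest, general growth blockers included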;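 also: wells of about 50 µL received 100 nL stock; 0% = vehicle wells and 100% = reference inhibitor wells; whole bacteria with a GFP reporter of the hypoxia response; strong numbers were not always called active; many hits fall short of the cut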
RN4220 kill = S. aureus RN4220 growth inhibition; OD600, 16 h; inhibition, % (no concentration beside the values); 330,000 compounds, 0.33% hits; AID 1259311;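 active = z-score of -3 or lower and OD600 up to 0.18 on both plates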;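 also: plate controls were untreated cells for no effect and reference antibiotic for full effect; stock transfer was 100 nL into about 80 µL; one replicate is shown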
Mtb hypoxia inh growth = second read-out of Mtb hypoxia inh, no call of its own (marks repeat the call); growth inhibition, %; measured here: M. tuberculosis growth (absorbance);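 0% = vehicle and 100% = reference antibiotic; read after six days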
The depositor's hits bear a star; ? = inconclusive; nt = not tested or not shown; & = joins results of further samples.

SMILES	PrP UTR inh	BJeLR lethal	Autofluor counter	ugtP null kill	Mtb hypoxia inh	Mtb hypoxia inh growth	RN4220 kill
O=C(NCc1ccccc1)C(=O)Nc1nccs1	-7	nt	3259	4	-1	-7	6.3
Cc1cccc(Nc2nc(N)nc(CN3CCN(c4ccc(F)cc4)CC3)n2)c1	15	6	6708	-12	1	4	-0.6
O=C(COC(=O)c1ccccc1OCc1ccccc1Cl)NCC1CCCO1 (stereo not drawn)	-23	nt	3865	8	18	8	1.6
CC(C)[C@H](NC(=O)c1cccc(CN(Cc2ccccc2)C(=O)/C=C/c2ccccc2)c1)C(=O)O	3	-1	?	6	7	12	3.0
Cc1nn(Cc2ccc(Cl)c(Cl)c2)c(C)c1NC(=O)c1noc2c1CCCCC2	-7	-17	17489*	3	8	4	1.1
CCN(CC(=O)NCc1ccco1)S(=O)(=O)c1ccc(F)cc1	-15	-1	2949	1	7	-4	-0.2
CCOC(=O)Cn1c(=O)c2c(nc(Br)n2Cc2ccc(Cl)cc2)n(C)c1=O	nt	16	nt	3	nt	nt	-0.6
N=c1oc2ccc(Br)cc2cc1C(=O)NC1CCCCCC1	1	5	?	-5	-4	10	3.2
Cc1cccc(C(C)C)c1NC(=O)c1ccc(COc2ccc3c(C)cc(=O)oc3c2)cc1	-7	6	2478	-2	17	1	15
CCOc1ccc(OCC(=O)Nc2ccccc2N2CCCC2)cc1	-23	16	nt	7	0	12	7.2
COCCN(CCOC)C(=O)C1CCN(c2ccc(S(=O)(=O)N3CCOCC3)cc2[N+](=O)[O-])CC1	-16	-1	?	3	8	1	-0.1
S=C(Nc1ccccc1Cl)N(CCN1CCCCC1)Cc1ccco1	-18	1	11058	1	5	7	2.3
Cc1onc(-c2c(Cl)cccc2Cl)c1/C(N)=N/OC(=O)N(C)C	0	-1	3854	nt	nt	nt	nt
Cc1cc(NC(=O)CN2CCc3ccccc3C2)nc2c1c(=O)oc1ccccc12	-25	-10	5645	8	7	6	0.5
O=C(Cn1cnc([N+](=O)[O-])c1)NCc1ccc(F)cc1	1	1	2460	14	1	6	7.1
N#CC1=C(N)Oc2n[nH]c(-c3ccccc3)c2C12C(=O)Nc1ccccc12 (stereo not drawn)	-23	3	9497	-2	11	4	24
O=C(NC(=S)Nc1ccc2oc(-c3ccncc3)nc2c1)c1ccccc1F	-22	-8	4871	-10	8	6	9.6
Cc1cc(=O)[nH]c(SCC(=O)NCC2CCCO2)n1 (stereo not drawn)	11	7	5741	9	-2	12	9.0
Cc1nn(-c2ccccc2)c(Cl)c1/C=N/N1CCN(c2ccccn2)CC1	-15	6	2574	nt	nt	nt	nt
COc1ccccc1-n1cnnc1SCC(=O)Nc1cccnc1Cl	-11	-1	4597	3	8	2	7.8
O=C(N/N=C(/CC(=O)c1cccs1)C(F)(F)F)c1ccc(O)cc1	-5	6	11343	nt	nt	nt	nt
Cc1nn2c3c(cnc2c1-c1ccc(Cl)cc1)C(=O)CC(c1ccco1)C3 (stereo not drawn)	-20	-12	8608	35	3	5	23
C1CC(CN2CCOCC2)CN(c2nc3nonc3nc2N2CCSCC2)C1 (stereo not drawn)	-15	15	3348	-2	10	-5	3.1
Cc1cc(C)c(NC(=O)COc2nc3ccccc3nc2C)c(C)c1	-40	-20	2108	8	1	7	0.8
S=c1[nH]nc(Cc2ccccc2)n1-c1ccc(Cl)cc1	-6	-5	2376	7	0	-6	3.8

4 entries from above, with two lines to a compound:
Second line of a record – PrP UTR inh | BJeLR lethal | Autofluor counter | ugtP null kill | Mtb hypoxia inh | Mtb hypoxia inh growth | RN4220 kill
> N#CC1=C(N)Oc2n[nH]c(-c3ccccc3)c2C12C(=O)Nc1ccccc12 (stereo not drawn)
→ -23 | 3 | 9497 | -2 | 11 | 4 | 24
> O=C(NC(=S)Nc1ccc2oc(-c3ccncc3)nc2c1)c1ccccc1F
→ -22 | -8 | 4871 | -10 | 8 | 6 | 9.6
> Cc1cc(=O)[nH]c(SCC(=O)NCC2CCCO2)n1 (stereo not drawn)
→ 11 | 7 | 5741 | 9 | -2 | 12 | 9.0
> Cc1nn(-c2ccccc2)c(Cl)c1/C=N/N1CCN(c2ccccn2)CC1
→ -15 | 6 | 2574 | nt | nt | nt | nt

More entries:
SMILES	PrP UTR inh	BJeLR lethal	Autofluor counter	ugtP null kill	Mtb hypoxia inh	Mtb hypoxia inh growth	RN4220 kill
O=C1/C(=C/c2cccnc2)SC(=S)N1NS(=O)(=O)c1ccccc1	-13	2	3283	3	14	7	16
O=C(CN1CCN(S(=O)(=O)c2ccc(Br)s2)CC1)N1CCCCC1	-1	nt	3450	-3	-2	9	0.2
COc1ccccc1/C=C/C=N/n1c(-c2ccccn2)n[nH]c1=S	-91	-2	4858	nt	nt	nt	nt
CCNC(=O)CSc1nnc(-c2cc(-c3ccc(Cl)cc3)nc3ccccc23)o1	-10	-5	9553	0	0	-1	4.2
CCOc1cc(Cl)c(S(=O)(=O)NCCCN2CCOCC2)cc1Cl	-23	-19	3545	7	3	5	3.3
C/C(=N\NC(=O)CC1(C)OCCO1)c1cccs1	-23	0	1953	nt	nt	nt	nt
CC(=O)Nc1ccc(S(=O)(=O)NCCc2ccc(S(N)(=O)=O)cc2)cc1	-6	-9	6434	8	12	12	6.1
CC(C)(C)c1cnnn1-c1ccc(C(=O)CCl)cc1	-23	1	3229	98*	24	12	96*
CC1CCCC(C)N1C(=O)c1cc(-c2ccc3c(c2)OCO3)on1 (stereo not drawn)	-46	1	5654	-1	-12	4	-2.1
O=C(COc1ccc(C2SCCS2)cc1)NNC(=O)C(Cl)Cl	-42	-2	nt	-9	9	4	-8.9
O=C(NCC(=O)N1CCN(C(c2ccccc2)c2ccccc2)CC1)c1ccc(Br)o1	4	4	5635	21	-2	-2	-11
COCCN(C(=O)CSc1ncc(C(F)(F)F)cc1Cl)c1c(N)n(Cc2ccccc2)c(=O)[nH]c1=O	-20	2	4286	-9	12	2	6.7
CC1(C)NC(=O)N(CC(=O)OCC(=O)Nc2cccc(S(N)(=O)=O)c2)C1=O	-16	3	2138	7	-1	0	1.3
Cc1ccc(-c2cc(C(=O)Nc3cnn(C45CC6CC(CC(C6)C4)C5)c3)no2)cc1	9	2	16091	3	1	5	-0.7
Cc1cc(C)cc(N2C(=O)CSC2c2cccs2)c1 (stereo not drawn)	-19	-8	3040	2	nt	nt	5.7
CC(C)(C)OC(=O)C[C@@H]1C/C=C\C[C@H](CC(=O)N(CCO)Cc2ccccc2)C(=O)NCCOC1=O	-7	nt	3686	8	4	8	4.7
C/C(=N\NC(=O)c1cc(C(C)C)[nH]n1)c1ccncc1	-11	4	4590	nt	nt	nt	nt
O=C(O)CCCNS(=O)(=O)c1ccc2ccccc2c1	13	-2	10092	-1	-2	7	1.1
C#CCOCCOCCOCCNc1nc(N2CCN(C(=O)C(CCC(=O)O)n3cc(C(N)Cc4ccc(O)cc4)nn3)CC2)nc(N2CCN(C(=O)C(C(C)CC)n3cc(C(N)CO)nn3)CC2)n1 (stereo not drawn)	nt	nt	nt	2	9	7	8.1
CCOc1ccc2[nH]cc(C(=O)N3CCN(C4CCCCC4)CC3)c(=O)c2c1	-31	-7	7993	4	3	6	2.8
CC(C)(C)OC(=O)NCCCCC1=CC2=CC(=O)C(C)(O)C(=O)C2=CO1 (stereo not drawn)	-21	6	3820	5	16	11	7.5
Cc1occc1C(=O)Nc1nnc(-c2ccncc2)s1	-21	-14	11244	4	2	-3	5.5
Cc1ccc(C(=O)NC(=S)Nc2ccc(N3CCOCC3)cc2)cc1C	-18	7	4350	25	22	17	1.1
Clc1cncc(Cl)c1N/N=C/c1ccccc1	-39	6	6131	nt	nt	nt	nt
CCOc1ccccc1N1CCN(C(=O)C(F)(F)F)CC1	-25	8	4701	7	nt	nt	2.9

An excerpt of these results, with two lines to a compound.
Results follow in this order: PrP UTR inh, BJeLR lethal, Autofluor counter, ugtP null kill, Mtb hypoxia inh, Mtb hypoxia inh growth, RN4220 kill
> COCCN(C(=O)CSc1ncc(C(F)(F)F)cc1Cl)c1c(N)n(Cc2ccccc2)c(=O)[nH]c1=O
  -20, 2, 4286, -9, 12, 2, 6.7
> CC1(C)NC(=O)N(CC(=O)OCC(=O)Nc2cccc(S(N)(=O)=O)c2)C1=O
  -16, 3, 2138, 7, -1, 0, 1.3

Compounds from the list above that have a nitro group on carbon, in the order listed:
SMILES	PrP UTR inh	BJeLR lethal	Autofluor counter	ugtP null kill	Mtb hypoxia inh	Mtb hypoxia inh growth	RN4220 kill
COCCN(CCOC)C(=O)C1CCN(c2ccc(S(=O)(=O)N3CCOCC3)cc2[N+](=O)[O-])CC1	-16	-1	?	3	8	1	-0.1
O=C(Cn1cnc([N+](=O)[O-])c1)NCc1ccc(F)cc1	1	1	2460	14	1	6	7.1

More compounds follow:
SMILES	PrP UTR inh	BJeLR lethal	Autofluor counter	ugtP null kill	Mtb hypoxia inh	Mtb hypoxia inh growth	RN4220 kill
CC1CCC(N2CC(=O)N(Cc3ccc4c(c3)OCO4)C(c3ccc(F)cc3)C2=O)CC1 (stereo not drawn)	-3	4	10761	4	13	12	4.5
COc1cccc(CNS(=O)(=O)c2ccc3c(c2)CCN3C(=O)C2CC2)c1	-7	5	4647	12	1	7	14
CCC12CN3CCN(CC(C3)C1=NNC(N)=O)C2	nt	nt	nt	0	1	-6	-0.5
COc1ccc(/C=C/C(=O)c2ccc(NC(=O)c3cccs3)cc2)cc1OC	-47	-1	9379	33	3	11	-0.2
CC1(c2ccc(Cl)cc2Cl)NC(=O)N(CC(=O)Nc2ccc3[nH]c(=O)[nH]c3c2)C1=O (stereo not drawn)	-13	-2	nt	-1	5	-4	1.1
CCOC(=O)Nc1ccc(S(=O)(=O)Nc2onc(C)c2C)cc1	nt	-6	4590	4	7	1	1.9
CCOC(=O)c1c2ccc(OCC(=O)NN)cc2n2ccccc12	5	-3	4295	6	11	6	2.7
O=C(Nc1ccccn1)C1CCC(=O)N1C(=O)OCc1ccccc1 (stereo not drawn)	nt	nt	nt	-4	-4	-5	0.4
O=C(CSc1ncn[nH]1)Nc1ccc([N+](=O)[O-])cc1Br	-14	0	2501	-4	11	-3	0.1
COc1cc(S(=O)(=O)N2CCN(C(=O)c3ccco3)CC2)c(OC)cc1C	-20	8	3695	3	-2	0	1.6
C=CCNC(=S)Nc1c(N)n(C)c(=O)n(C)c1=O	-2	-9	?	-1	-3	2	-1.4
Cc1cccc(NC(=O)CSc2ncnc3c2oc2ccccc23)c1	-12	4	3834	-2	3	1	0.7
O=C(Nc1ccccc1)c1csc(-c2ccccc2)n1	-40	5	3627	-15	-4	-1	4.4
O=C(CCNS(=O)(=O)c1ccc(Br)cc1)NCCCSc1ccccc1	-1	nt	2917	-15	-1	2	-7.6
COc1cccc(S(=O)(=O)NCC(=O)N2CCCCCC2)c1	-16	0	4044	3	15	11	3.7
O=C(CN(c1ccc(Cl)cc1)S(=O)(=O)c1ccccc1)N1CCN(c2ccccc2)CC1	-10	3	9361	-10	1	11	2.0
CCOc1cc(CNc2ccc3c(c2)OCCO3)cc(Br)c1OCC	-26	39	3004	18	13	2	-14
CCOC1OC(C(=O)O)=CC(c2coc3ccccc3c2=O)C1CCCO (stereo not drawn)	nt	nt	nt	3&2	8&14	7&19	5.2&2.2

Screens (PubChem)
